# High-throughput results (PubChem)
# Vaccinia mCherry = inhibitors of vaccinia virus infection (mCherry reporter signal); Vaccinia virus mCherry reporter infection, fluorescence; about a quarter of the inactives have no number; Potency, µM (top dose mostly 36.5 µM), for the others: top-dose activity change, negative = inhibition, most hits filed as inhibitors; 0.63% of 310,000 active; active = well fitted inhibition curve with a large enough effect; inconclusive = small, poorly fitted or top-dose-only effect; inactive = no such curve, though single readings can be large or run the other way; tested in A549 cells; also: nearly all actives have a fitted effect of over 35% in size; inactives centre near -10
# VACV Venus inh = vaccinia inhibition (Venus reporter); Potency, µM (titrated, usually from 36.5 µM), for the others: top-dose activity change, negative = inhibition, hits mostly inhibitors; 0.46% of 330,000 active; AID 720580; Vaccinia virus Venus reporter expression, fluorescence; active means well fitted inhibition curve with a large enough effect; inconclusive means small, poorly fitted or top-dose-only effect; inactive means no such curve, though single readings can be large or run the other way; tested in A549 cells; also: nearly all actives have a fitted effect of over 30% in size; inactives centre near -10
# * = called active by the depositor; i = inactive; ? = inconclusive; . = not tested or not shown; & = joins results of further samples; [ ] = another dose, or the depositor's remark. % is scaled to controls: 0 for no effect and ±100 for the full control effect; potency is read from the fitted curve at half-maximal effect.
Compound | Vaccinia mCherry | VACV Venus inh
CCCOc1ccc(C2CC(=O)NC2=O)cc1 (centres undefined) | i | 0%
COc1ccccc1/C=C/C(=O)OCC(=O)N1CCN(S(=O)(=O)c2ccc(C)cc2C)CC1 | -13% | -16%
CNC(=O)C1CC(=O)N(c2ccc(OCC(=O)Nc3ccccc3)cc2)C1 (centres undefined) | i | -9%
Cc1cc(C)c(NS(=O)(=O)c2cc(-c3onc(C)c3C)ccc2C)c(C)c1 | -15% | -16%
CC1(C)CC(=O)C/C(=N/NC(=O)CCCOc2ccc(Cl)cc2Cl)C1 | 0% | 4%
Clc1ccc(OCc2nc(-c3ccc(Br)o3)no2)cc1 | -9% | 1%
CC(C)CC(N(C)C)C1(c2ccc(Cl)cc2)CCC1 (centres undefined) | -2%&-7% | -12%&-15%&3%
CCc1cccc2c(C(=O)COC(=O)c3nccnc3N)c[nH]c12 | -1% | -10%
c1ccc(CN2CCC(Nc3nc(-c4ccccc4)nc4ccccc34)CC2)cc1 | -9% | -6%
Cn1cc(C(=O)N/N=C/C(Br)=C\c2ccccc2)ccc1=O | -4% | 6%
O=C(O)c1ccccc1Cc1nc2cc(Cl)ccc2c(=O)[nH]1 | -13% | 26%
COc1cc(Br)cc(/C=N/c2ncn[nH]2)c1O | -14% | -15%
CCc1cccc(-n2c(=O)c3cccnc3n2CC(=O)Nc2ccccc2C(=O)OC)c1 | -8%[7.34 µM] | -3%[7.34 µM]
COc1ccc(NC(=O)c2ccco2)c(NC(=O)Cc2cccs2)c1 | i | -14%
CCOc1ccc(NC(=O)CN(C)C(=O)c2cn(-c3ccc(C)cc3)nc2-c2cccc(OC)c2)cc1OCC | 8% | -17%
O=C1CCc2cc(S(=O)(=O)Nc3ccccc3)cc3c2N1CC3 | -25% | -11%
c1ccc(C(c2ccccc2)c2noc(CN3CCC(c4ccncc4)CC3)n2)cc1 | -2% | -22%
CC12CCC(=O)C=C1CCC1C2CCC2(C)C(c3csc(N)n3)CCC12 (centres undefined) | i | -27%
O=C(Nc1ccc(Cc2ccncc2)cc1)c1ccc(S(=O)(=O)N2CCCC2)cc1 | -24% | -2%
CCOc1ccc(/C(O)=C2/C(=O)C(=O)N(CC3CCCO3)C2c2cccs2)cc1 (centres undefined) | -14% | -9%
O=[N+]([O-])c1ccc(N/N=C/c2ccc(O)c(O)c2O)c(S(=O)(=O)N2CCOCC2)c1 | 0% | 6%
Cc1ccc(C(=O)OC(C)C(=O)c2cc(C)c(C)cc2C)o1 (centres undefined) | -11% | -9%
COc1ccc(N2CCN(C3CC(=O)N(Cc4ccccc4)C3=O)CC2)cc1 (centres undefined) | -13% | -9%
CNC(=O)c1nn(-c2ccc(Cl)cc2)ccc1=O | . | -18%
COc1ccc(/C=N/Nc2nc(N3CCCC3)nc(N3CCCC3)n2)cc1 | ? | ?
CCN(CC)C(=O)C1CCCN(C(=O)c2cc(COc3cccc(OC)c3)on2)C1 (centres undefined) | -7% | -20%
COc1ccc(-n2cc(C(=O)c3ccc4ccccc4c3O)cn2)cc1 | ? | -14%
Cc1cccc(NC(=O)c2nc(S(C)(=O)=O)ncc2Cl)c1 | -15% | -10%
Cc1nn(C)c(C)c1S(=O)(=O)N1CCC(CO)(CC2CCCCO2)CC1 (centres undefined) | -6% | 0%
CS(=O)(=O)c1ccc2c(c1)sc1nc(=O)c(/C=C3/C=CC(=O)C(O)=C3)c(N)n12 | -23% | 14%
Cc1cc(C)c(NC(=O)CSc2n[nH]c(-c3ccccc3Cl)n2)c(C)c1 | i | -15%
CCN(Cc1ccccc1)C(=O)c1cn(-c2cccc(OC)c2)c(=O)c2ccccc12 | -8% | -8%
O=C(CCc1nc2ccccc2s1)N1CCOc2ccc(CN3CCc4sccc4C3)cc2C1 | -16% | 0%
COc1ccc(CN(CC(=O)NCc2ccc(F)cc2)C(=O)CCC(=O)Nc2nccs2)cc1 | -17% | -3%
CCOc1ccc(Nc2c(S(=O)(=O)c3ccc(Cl)cc3)cnc3ccc(OC)cc23)cc1 | -26% | -20%
C/C(=N\NC(=O)CSc1nc(C)[nH]c1[N+](=O)[O-])c1ccc(F)cc1 | -7% | -3%
O=C(Nc1ccccc1-c1nc2ccccc2s1)c1cccnc1Cl | 0% | -1%
COc1ccccc1CCNC(=O)CCCn1c(=O)c2cccn2c2cccnc21 | -9% | -12%
O=C(COc1cccc2ccccc12)N/N=C/c1ccncc1 | i | -16%
CN1C(=O)N(c2ccccc2)C(Nc2nncs2)C1(C)C (centres undefined) | . | 1%

# Compound profiles, from the list above. Order of screens: Vaccinia mCherry | VACV Venus inh
# Cc1cc(C)c(NC(=O)CSc2n[nH]c(-c3ccccc3Cl)n2)c(C)c1 is listed with i | -15%
# CCN(Cc1ccccc1)C(=O)c1cn(-c2cccc(OC)c2)c(=O)c2ccccc12 is listed with -8% | -8%
# O=[N+]([O-])c1ccc(N/N=C/c2ccc(O)c(O)c2O)c(S(=O)(=O)N2CCOCC2)c1 is listed with 0% | 6%
# C/C(=N\NC(=O)CSc1nc(C)[nH]c1[N+](=O)[O-])c1ccc(F)cc1 is listed with -7% | -3%
# CC(C)CC(N(C)C)C1(c2ccc(Cl)cc2)CCC1 (centres undefined) is listed with -2%&-7% | -12%&-15%&3%

# Further structures follow.
Compound | Vaccinia mCherry | VACV Venus inh
COc1cc(C2NC(=O)c3ccccc3O2)ccc1OC(C)C (centres undefined) | -18% | -12%
CCOc1ccccc1NC(=O)NC1CCCCCCC1 | -11% | -14%
O=C(NN=C1CCCC1)c1ccccc1OCc1ccc(Cl)cc1 | -3% | -8%
CSc1nc2[nH]ncc2c(=O)n1-c1ccccc1 | -8% | -11%
O=C1c2ccccc2-c2onc3c(Br)cc(NC4CCCCC4)c1c23 | 100%[activator] | 238%[activator]
CCCCN(CCCC)S(=O)(=O)c1ccc(NS(=O)(=O)c2ccc(NC(C)=O)cc2)cc1 | -14% | -13%
O=C(OCC#Cc1c(COC(=O)c2ccccc2)nnn1Cc1ccccc1)c1ccccc1 | -9% | -21%
Nc1nc(SCC(=O)Nc2cc(Cl)c(Cl)cc2Cl)n[nH]1 | ? | -23%
C[C@H]1CN([C@@H](C)CO)C(=O)c2cccc(NC(=O)c3cnccn3)c2O[C@@H]1CN(C)S(=O)(=O)c1ccc(F)cc1 | i | -11%
CC(C)=CCc1c(O)cc2oc(C)cc(=O)c2c1O | -2% | ?
CCOC(=O)c1c(C)n(Cc2ccco2)c2ccc(OC)cc12 | -7% | -22%
COc1cccc2ccc(CN3CCC4(CC3)c3ccccc3[C@@H](NC(=O)c3ccccc3)[C@@H]4O)nc12 | -12% | 3%
Cc1ccc(CNc2nc(-c3cccnc3)nc3ccccc23)cc1 | ? | -22%
Cc1ccc(C(CC(=O)O)C2CCOC(C)(C)C2)cc1 (centres undefined) | -4% | 8%
CCc1cccc(NC(=O)C(NS(=O)(=O)c2ccc3nc(C)sc3c2)C(C)C)c1 (centres undefined) | -9% | 1%
COc1ccc(CNC(=O)C2Cc3c(-c4cccc(F)c4)ccnc3O2)cc1OC (centres undefined) | -3% | 4%
NC(=O)C1CCN(C(=O)COc2cccc3ccccc23)CC1 | i | -6%
NC(=O)c1ccc[n+](CC(=O)c2ccccc2)c1 | ? | -8%
CC(C)Oc1ccc(S(=O)(=O)N2CCOCC2)cc1NC(=O)C1CSC2(C)CCC(=O)N12 (centres undefined) | -5% | 3%
Cc1cn(CC(=O)NCCc2c[nH]c3ccccc23)c(=O)[nH]c1=O | i | 4%
CC(C)c1nnc(N2C(=O)c3oc4ccccc4c(=O)c3C2c2ccco2)s1 (centres undefined) | . | 0%
COc1ccc(-n2c(Cn3nnc4ccccc43)nnc2SCC(=O)O)cc1 | -14% | -15%
CCn1nnnc1SCC(=O)N1CCCCC1 | -9% | 11%
COC(=O)c1c(C)[nH]c(C)c1-c1ccc([N+](=O)[O-])cc1 | i | -25%
COc1ccc(S(=O)(=O)N(C)c2ccc(C(=O)NCc3ccccn3)cc2)cc1 | -11% | 0%
CCCn1nnnc1NC(=O)c1cc(Cl)ccc1Cl | -19% | -13%
O=C(CN1C(=O)C2C3C=CC(C4CC34)C2C1=O)Nc1cnc2ccccc2c1 (centres undefined) | -10% | -6%
CS(=O)(=O)N1CCC(C(=O)Nc2cccc(Cl)c2Cl)CC1 | i | -18%
CC1CCc2c(sc3ncn(CCO)c(=O)c23)C1 (centres undefined) | -23% | -16%
CN(C)S(=O)(=O)c1ccc2c(c1)nc(CCC(=O)NCc1ccc(Cl)cc1)n2C | -15% | -21%
O=C1[C@H](Cc2ccccc2)NCCCC[C@@H](c2ccco2)N1Cc1ccccc1 | 0%&-8% | -15%&-20%
Cn1c2ccccc2c(=O)c2ccc(C#CC3(N)CCCCC3)cc21 | -25% | ?
CC1(C(=O)NCc2ccccc2)Oc2ccccc2NC1=O (centres undefined) | -17% | 2%
COc1ccc(Nc2nnc(SCC(=O)/C=C3/N(C)c4ccccc4C3(C)C)s2)cc1 | -2% | -9%
Cc1c(Cl)cccc1NC(=O)c1cc(-c2ccco2)on1 | 17% | -10%
COc1ccc(S(=O)(=O)N2CCOCC2)cc1C(=O)NCC(c1ccccc1)c1ccccc1 | i | 0%
COc1cc(/C=C2/SC(=O)NC2=O)ccc1Oc1ccc([N+](=O)[O-])cc1[N+](=O)[O-] | ? | 1%
CCC(CC)c1nnc(NC(=O)C2=NNC(=O)CC2)s1 | 3% | 3%
C=C1C(=O)OC2C1CCC(C)C1(O)C=CC(=O)C21C (centres undefined) | ? | -26%
CN(C)CCOC(=O)C1(c2ccccc2)CCOCC1 | -17% | -18%&-10%
CC(O)CNc1cc(N)c([N+](=O)[O-])cc1[N+](=O)[O-] (centres undefined) | -6% | -21%
CSc1ccccc1NC(=O)CN1CCN(S(=O)(=O)c2ccccc2[N+](=O)[O-])CC1 | -12% | -19%
CN(C)c1ccc(CNC(=O)CN2C(=O)c3cccnc3Oc3ccc(Cl)cc32)cc1 | 3% | -2%
COc1cccc(-c2c(C(=O)N/N=C/c3sccc3C)nnn2-c2nonc2N)c1 | i[7.34 µM] | -14%[7.34 µM]
Cc1ccc(NC(=O)/C(=C/c2ccc([N+](=O)[O-])cc2)NC(=O)c2ccccc2)cc1 | -9% | -20%
COC(C(=O)NCc1ccccc1C)c1ccccc1 (centres undefined) | -4% | -2%
O=C(O)c1cnn(-c2ccccc2)c1-n1cccc1 | -7% | 3%
Cc1cc(C)c2c(CN3CCC(C)CC3)cc(=O)oc2c1 | -13% | -8%
CO[C@H]1[C@H](NC(=O)C(C)C)c2ccccc2C12CCN(Cc1c(C)nn(C)c1Cl)CC2 | -8% | 2%
Cc1ccc(C2(C)NC(=O)N(CC(=O)Nc3ccc(Cl)c(S(=O)(=O)N4CCCCC4)c3)C2=O)cc1 (centres undefined) | -13% | ?
COCCCNC(=O)C1CCC(CNS(=O)(=O)c2ccc(OC)cc2)CC1 (centres undefined) | -1%&-4% | -8%&-8%
Cc1cc(=O)[nH]c(/N=C(\N)Nc2ccc(SC(F)F)cc2)n1 | i | -17%
COc1ccc(CCNC(=O)CCCOc2cccc(C)c2C)cc1OC | 17%[7.34 µM] | 30%[7.34 µM]
CCC(CC)C(=O)NCCc1cc2ccc(C)cc2[nH]c1=O | -22% | -4%
CCOc1ccc2nc(N3CCCC(C(=O)NCCc4ccc(OCC)c(OCC)c4)C3)sc2c1 (centres undefined) | -18% | -16%
CCC(=O)OCC(=O)c1cc(C)n(-c2ccc(Br)cc2)c1C | -15% | -15%

# (further entries)
Compound | Vaccinia mCherry | VACV Venus inh
Cc1cc(OCC(=O)Nc2cc(-c3nc4ccccc4[nH]3)ccc2C)ccc1Cl | -13% | -12%
Cc1ccc(C)c(NC(=O)CSc2nnc(-c3ccccc3)o2)c1 | 6% | -3%
O=C(NCCN1CCOCC1)c1cc(Sc2cccc(Cl)c2)nc2ccccc12 | -6% | -15%
CCCCS(=O)(=O)c1sc2nc3c(cc2c1N)CCCC3 | ? | -12%
Cc1c(C(=O)OCC(=O)c2c(N)n(CC(C)C)c(=O)n(C)c2=O)oc2ccccc12 | -6% | ?
CCOC(=O)c1cc(C(C)(C)C)oc1CNC(=O)c1c(C)oc2c1CCCC2 | i | -8%
CC(=O)Nc1ccc(S(=O)(=O)NCc2nc(-c3ccccc3Cl)no2)cc1 | -21% | -12%
CCOC(=O)c1c(C)oc2ncnc(N3CCN(c4ccc(C)cc4C)CC3)c12 | 4% | 3%
Cc1ccc2[nH]cc(CCNC(=O)c3ccco3)c2c1 | -28% | -4%
Cc1ccc(/C=N/c2sc3c(c2C#N)CCC3)o1 | . | -10%
COc1cc(=O)n2c(c1C(=O)NC(C)c1ccco1)CCN(Cc1ccccc1Cl)CC2 (centres undefined) | i | 0%
O=C(c1ccc2nc(N3CCCCC3)sc2c1)N1CCN(c2ccccn2)CC1 | 6% | -10%
CCN1CCN(CC(=O)n2c3c(c4ccccc42)CC(C)CC3)CC1 (centres undefined) | . | -17%
COc1ccc(C(C)=O)cc1CC(C(=O)c1ccccc1)N(C)C (centres undefined) | i | -16%
CCCc1cc(=O)[nH]c2nnc(SCC(=O)Nc3cccc(NC(C)=O)c3)n12 | i | -7%
Cc1ccc(NC(=O)C2CC(=O)N(c3ccc4c(c3)OCCO4)C2)nc1 (centres undefined) | i | -15%
CN(C)c1ccc(C=C2c3ccccc3-c3ccccc32)cc1 | -22% | -12%

# This is a random part of the collection (roughly 0.82% active in at least one column).
